# Cruzain Triton = qHTS Assay for Promiscuous and Specific Inhibitors of Cruzain (with detergent); 0.43% of 200,000 active; purified cruzain, Z-FR-AMC fluorescence, 0.01% Triton; Potency, µM, for inactives: max response, negative = inhibition, hits mostly inhibitors; Cruzipain (Trypanosoma cruzi), P25779;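 note: plate controls were neutral wells for no effect and buffer without enzyme for full effect; nearly all actives have a fitted effect of over 40% in size; top concentration of the series not given in the record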
# Target sequence (P25779 123-467 limits assumed): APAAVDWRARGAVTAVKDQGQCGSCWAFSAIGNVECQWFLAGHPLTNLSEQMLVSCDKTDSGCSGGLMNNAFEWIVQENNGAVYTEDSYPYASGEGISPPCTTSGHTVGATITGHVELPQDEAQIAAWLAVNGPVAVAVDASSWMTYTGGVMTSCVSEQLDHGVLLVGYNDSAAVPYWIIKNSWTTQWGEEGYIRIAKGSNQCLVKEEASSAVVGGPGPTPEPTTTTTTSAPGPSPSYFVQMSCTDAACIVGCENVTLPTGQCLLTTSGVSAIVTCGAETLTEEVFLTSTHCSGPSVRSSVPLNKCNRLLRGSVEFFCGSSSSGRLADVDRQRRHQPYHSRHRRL
#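 Compounds were screened in titration against cruzain (1.5 nM) with 0.01% Triton X-100 to counter colloidal aggregation. Activity was the AMC fluorescence increase over 60 s after adding 2 uM Z-FR-AMC at pH 5.5.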
# SARS PLP yeast = qHTS of Yeast-based Assay for SARS-CoV PLP; S. cerevisiae expressing SARS-CoV PLpro, growth rescue; control for the full effect not named in the record; Potency, µM (titrated, usually from 32.9 µM), without a hit: at the top dose activity, positive = growth rescue; 0.19% of 330,000 active; active means well fitted rising curve with a large enough effect; inconclusive means small, poorly fitted or top-dose-only effect; inactive means no such curve, though single readings can be large or run the other way; note: 0% is about no effect; nearly all actives have a fitted effect of over 55% in size; growth read by luminescence after 48 h
# 2A StopGo = High Throughput Screening for Foot and Mouth Disease Virus Antivirals; human cells with a luciferase reporter of 2A StopGo recoding; control for the full effect not named in the record; Potency, µM (titrated, usually from 57.9 µM), inactives show at the top dose signal change, negative = less light; 1.2% of 410,000 active; AID 1159524, 2015; active = well fitted falling curve with a large enough effect; inconclusive = small, poorly fitted or top-dose-only effect; inactive = no such curve, though single readings can be large or run the other way; tested in HEK293T cells; note: % is set by controls: 0 for no effect and ±100 for the full control effect; nearly all actives have a fitted effect of over 45% in size; luciferase light after 4 h
# Lassa entry inh = qHTS for Inhibitors of binding or entry into cells for Lassa Virus. Potency, µM (highest dose often 37.9 µM), for the others: top-dose activity change, negative = inhibition, hits mostly inhibitors. Lassa virus pseudotype entry inhibition, cell reporter; control for the full effect not named in the record. 1.2% of 300,000 active; active means well fitted inhibition curve with a large enough effect; inconclusive means small, poorly fitted or top-dose-only effect, or effect the other way; inactive means flat fitted curve, though single readings scatter; tested in HEK293 cells; note: % is set by controls: 0 for no effect and ±100 for the full control effect; nearly all actives have a fitted effect of over 50% in size; luciferase read-out
# NS1 inh = qHTS Assay for Inhibitors of Influenza NS1 Protein Function; AID 2326, 2010; Potency, µM (doses to about 46.1 µM), for the others: at the top dose activity, positive = more growth; S. cerevisiae slowed by influenza A NS1, growth recovery by OD600; 0.4% of 270,000 active; active means well fitted rising curve with a large enough effect; inconclusive means small, poorly fitted or top-dose-only effect; inactive means no such curve, though single readings can be large or run the other way; note: nearly all actives have a fitted effect of over 50% in size
#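 Recovery from NS1-induced slow growth read by OD600 in budding yeast switched to galactose assay medium (pH 6.0, -URA) at 1:100 dilution. Compound 23 nl per well; the matching strain lacking NS1 serves as control.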
# Cruzain noTriton = qHTS Assay for Promiscuous and Specific Inhibitors of Cruzain (without detergent) | Cruzipain (Trypanosoma cruzi), P25779 | purified cruzain, Z-FR-AMC fluorescence, no detergent | Potency, µM, for the others: max response, negative = inhibition, usual class: inhibitors | 2.3% of 200,000 active;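 note: plate controls were enzyme without inhibitor for no effect and buffer without enzyme for full effect; nearly all actives have a fitted effect of over 40% in size; top concentration of the series not given in the record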
#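 Purified cruzain at 1.5 nM, pre-incubated 15 min with compound at room temperature in 100 mM sodium acetate pH 5.5, 5 mM DTT, 0.00005% Triton X-100. Reaction started with 2 uM Z-FR-AMC; AMC fluorescence increase over 60 s gives rate.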
# RE007 growth inh = qHTS Assay for Inhibitors of the HIV-1 protein Vpr; Potency, µM (highest dose often 92.2 µM), for inactives: at the highest dose activity change, negative = less growth; 0.21% of 360,000 active; S. pombe RE007 Vpr strain, BacTiter-Glo ATP luminescence, 24 h; control for the full effect not named in the record; active = well fitted falling curve with a large enough effect; inconclusive = small, poorly fitted or top-dose-only effect; inactive = no such curve, though single readings can be large or run the other way;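 note: % is set by controls: 0 for no effect and ±100 for the full control effect; nearly all actives have a fitted effect of over 50% in size; the assay follows cell death caused by Vpr and the record does not say whether a fall means rescue or toxicity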
#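 Fission yeast RE007 carrying one integrated HIV-1 vpr copy, seeded at OD 0.01 in PMG+AL medium with 23 nL pinned compound. Grown 24 h at 30 degrees; viability read by BacTiter-Glo luminescence after 5 min.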
# MARV entry inh = qHTS for inhibitors of binding or entry into cells for Marburg Virus; Marburg virus pseudotyped entry inhibition, cell reporter; control for the full effect not named in the record; about a third of the inactives were read at about 46 µM; Potency, µM (series often up to 37.8 µM), for the others: at the top dose activity change, negative = inhibition, hits mostly inhibitors; 1.8% of 300,000 active; AID 540276, 2011; active = well fitted inhibition curve with a large enough effect; inconclusive = small, poorly fitted or top-dose-only effect, or effect the other way; inactive = flat fitted curve, though single readings scatter; tested in HEK293 cells; about a fifth of its hits are not listed in these tables; note: % is set by controls: 0 for no effect and ±100 for the full control effect; luciferase read-out
# An asterisk follows results filed as active; ? = inconclusive; . = no result given; & = joins results of further samples; [ ] = another dose, or the depositor's remark. Unless noted, calls come from the whole dose curve; as a rule, active = well fitted curve in the direction sought with a large enough effect; inconclusive = small, poorly fitted or top-dose-only effect, or another doubt; inactive = no such curve, though single readings can be large; an effect the other way counts as inactive or inconclusive. Potency is the fitted concentration of half-maximal effect.
SMILES,Cruzain Triton,SARS PLP yeast,2A StopGo,Lassa entry inh,NS1 inh,Cruzain noTriton,RE007 growth inh,MARV entry inh
CSc1nc2sc3c(c2c2nncn12)CCC3,-7.8%,-11.5%,-17.2%,-2.7%,-10.3%,-3.3%,4.5%,-26.4%&-26.4%
CCc1ccc2c(c1)cc(CN(C(=S)Nc1ccc(Cl)cc1)C1CC1)c1nnnn12,6.5%,-5.0%,-21.8%,-1.2%,0.8%,?,-6.2%,-13.3%
CCN(CC(=O)NC1CCS(=O)(=O)C1)c1nc(-c2cccnc2)nc2ccccc12 (stereo not given),2.6%,3.9%,0.8%,9.6%,4.4%,-3.0%,2.1%,1.2%
O=C(O)c1cc(-n2nnnc2SCc2ccccc2F)ccc1Cl,.,-0.1%,5.2%,19.9%[46.1 µM],4.0%,.,0.2%,3.4%[46.1 µM]
NC(=O)Cc1ccc(Nc2nnc(-c3ccccc3)c3ccccc23)cc1,-5.4%,1.2%,?,16.7%[46.1 µM],-4.1%,3.7%,11.7%,-14.4%[46.1 µM]
C=CCc1ccccc1OCCn1c(C2CC(=O)N(Cc3ccc(F)cc3)C2)nc2ccccc21 (stereo not given),-4.1%,.,?,15.6%[46.1 µM],.,18.4%,.,-9.2%[46.1 µM]
CCS(=O)(=O)c1ccc2c(c1)N(S(=O)(=O)c1ccc(Cl)cc1)CC(C(=O)O)O2 (stereo not given),.,-0.8%,13.0%,14.9%,.,.,6.7%,?
O=C(c1csc2ccccc12)n1cccn1,0.9%,0.7%,27.9%,14.3%,27.3%,-7.7%,-8.2%,4.4%
C[C@@H](CN=[N+]=[N-])CN1CC[C@H](O)CCC1=O,.,-3.9%,-7.3%,.,-1.1%,.,-9.4%,.
N#Cc1c(N)nc2c(c1-c1ccc3c(c1)OCO3)CCCCCC2,-1.2%,10.0%,-20.7%,-16.8%,-5.0%,-5.0%,16.0%,4.8%[46.1 µM]
CCOC(=O)C1CCN(C(=O)C2CCN(c3nnc(C)c4c(C)n(-c5ccccc5)nc34)CC2)CC1,-3.3%,.,-3.5%,?,.,8.6%,.,.
CC(C)NC(=O)c1ccccc1NC(=O)Cc1ccc(Cl)cc1,-2.3%,?,.,2.2%,-28.7%,-2.2%,.,1.5%
Cc1ccc(OCC(=O)NCC(=O)OCc2cc(=O)n3nc(CC(C)C)sc3n2)cc1,-2.9%,.,-22.6%,-0.5%[46.1 µM],.,8.3%,.,.
CC(C)(Oc1ccc(Cl)cc1)C(=O)NCC(c1ccco1)N1CCCCC1 (stereo not given),.,0.5%,-13.4%,5.1%,.,.,-10.4%,?
O=C(Cn1c(=O)sc2ccccc21)Nc1ccc2c(c1)OCCO2,-4.8%,1.9%,4.2%,?,-5.3%,-6.3%,5.5%,-3.8%
C1=C2C[N+]3(CCCC3)CC2Cc2ccc3ccccc3c21 (stereo not given),-2.4%,2.4%,-15.7%,0.0%,0.8%,-6.7%,-16.9%,?
O=C(O/N=C1\CCS(=O)(=O)c2sccc21)c1c(F)cccc1F,.,0.3%,-8.5%,8.5%,6.2%,.,-3.6%,-0.3%[14.2 µM]
CC1CN(CCCCOc2cccc(Oc3ccccc3)c2)CC(C)O1 (stereo not given),.,-1.8%,?,?,-3.6%,.,4.4%,?
CCn1nc(C)c(C2C(C#N)=C(N)OC3=C2C(=O)CCC3)c1C (stereo not given),-4.1%,-7.3%,-3.5%,?,6.0%,-1.3%,-11.9%,?
N#Cc1ccccc1NC(=O)CSc1nnc(-c2ccccc2O)n1-c1ccccc1,-8.1%,2.9%,?,-6.3%,-27.3%,-3.0%,-0.9%,-37.8%
CCCOc1ccc(CCc2n[nH]c(=S)n2Cc2ccccc2)cc1,-10.8%,20.2%,?,?,11.1%,-2.0%,22.1%,?
Cc1ccc(Cl)cc1N1CCN(C(=O)c2ccc3nc(N4CCC(C)CC4)sc3c2)CC1,-3.2%,.,?,17.4%[46.1 µM],.,?,.,11.2%[46.1 µM]
CC(CN1CCOCC1)OC(=O)c1ccccc1Br (stereo not given),1.5%,3.0%,17.5%,3.3%,0.5%,4.7%,9.7%,12.1%
C=C(C)Cn1c(SCC(=O)O)nnc1-c1ccc(C(C)(C)C)cc1,-0.2%,-3.3%,-17.1%,7.2%,0.8%,?,10.2%,12.1%
COc1cccc(C(=O)OCC(=O)NCCCc2ccccc2)c1,.,-2.4%,-3.8%,.,-40.3%,.,1.2%,.
CNc1ncnc2c1ncn2[C@@H]1O[C@H](CO)[C@@H](O)[C@H]1O,.,.,-22.0%&37.6%,?,.,.,3.9%[18.4 µM],4.9%
Nc1nc(SCC(=O)N2CCCCCC2)[nH]c(=O)c1NC(=O)c1ccco1,.,0.8%,-20.3%,.,5.3%,.,8.1%,.
CCOC(=O)c1sc(NC(=O)C(C)Sc2nc(N)cc(=O)[nH]2)nc1C (stereo not given),.,1.3%,-4.4%,6.4%,.,.,-10.0%,7.8%[46.1 µM]
COC(=O)c1cccc(NC(=S)Nc2cccc(Cl)c2C)c1,-3.9%,11.3%,-4.6%,-1.4%,-11.7%,-2.5%,-1.3%,-16.5%
CN(C)S(=O)(=O)c1cc(NC(=O)COC(=O)Cc2ccc(Cl)cc2Cl)ccc1Cl,-7.8%,-8.3%,-17.5%,-9.7%,3.0%,0.4%,11.6%,-8.1%
COc1ccccc1NC(=O)c1ccc2c(Cl)c3c(nc2c1)CCCC3,-0.4%,.,33.5%[activator],5.8%[46.1 µM],.,29.9%,.,11.2%[46.1 µM]
Cc1nn(-c2ccc(F)cc2F)c(=O)c2noc(C)c12,.,0.3%,-8.8%,.,4.6%,.,-8.5%,.
CN(C)c1ccc(NC(=O)CSC2=Nc3ccccc3C3=NC(CCC(=O)NCc4cccs4)C(=O)N23)cc1 (stereo not given),-5.4%,.,0.0%,-2.5%[46.1 µM],.,-12.5%,.,.
CCOC(=O)c1cnn(-c2ccccc2)c1NC(=O)CN1CCOCC1,.,3.1%,8.2%,.,0.7%,.,6.0%,.
Cc1c(O)ccc2c(CN(C)Cc3ccccc3)cc(=O)oc12,.,-1.0%,-16.8%,?,-5.7%,.,-5.6%,11.6µM*
Fc1ccc(-n2c(=S)[nH]c3cccnc32)cc1,.,2.1%,-0.5%,5.7%,-4.4%,.,8.8%,-27.8%
COc1cc2cc(C(c3nnnn3C3CCCC3)N3CCCCC3)c(=O)[nH]c2cc1OC (stereo not given),-14.9%,3.7%,12.8%,?,-16.5%,-2.4%,-3.8%,-9.3%&-20.8%
COc1ccc(/C=C/C(=O)Nc2cc(S(=O)(=O)N3CCOCC3)ccc2OC)cc1,.,0.7%,8.3%,?,.,.,-9.0%,?
N#C/C(=C\c1ccc([N+](=O)[O-])cc1)c1ccccn1,.,-3.3%,15.2%,1.7%,.,.,-20.2%,12.7%[46.1 µM]
Cn1c(C(O)c2ccccc2F)nc(Cl)c1Cl (stereo not given),6.5%,-1.8%,-4.4%,24.9%,-11.2%,14.5%,17.1%,?
CC(=O)Nc1ccc(NC(=O)CSc2nc3nc(-c4cccs4)cc(C(F)(F)F)c3c(=O)[nH]2)cc1,.,-0.6%,0.9%,.,-7.1%,.,-2.5%,.
O=C1CCCN1CCCNC(=S)Nc1ccc(F)c(Cl)c1,.,0.0%,7.3%,?,-0.5%,.,21.0%,-11.1%[46.1 µM]
Cc1cccc(C)c1Nc1sc(C(=O)c2ccccc2)c(N)c1S(=O)(=O)c1ccccc1,-1.2%,.,-18.5%,?,.,15.8µM*,.,.
Cc1cc(=O)[nH]c(SCCc2ccccc2)n1,.,-0.4%,-5.3%,21.7%[46.1 µM],6.1%,.,-2.6%,17.9%[46.1 µM]
Cc1cc(Br)ccc1NC(=O)CN(C)C(=O)CCSc1ccc(F)cc1,.,-2.2%,-28.7%,?,.,.,7.8%,-0.5%
CC(=O)c1cccc(NC(=O)N2CCCC2C(=O)NCCC(C)C)c1 (stereo not given),1.9%,0.8%,5.9%,0.0%,-1.9%,0.9%,18.7%,?
O=C(COc1cccc(Cl)c1)N1CCC(c2nc3ccccc3o2)CC1,-6.1%,.,-16.2%,-21.0%[46.1 µM],.,7.6%,.,2.5%[46.1 µM]
Cc1cc2ccccn2c1C(=O)c1ccccc1F,.,-3.6%,7.6%,-25.3%,-37.9%,.,0.7%,?
CC1(C)NC(=O)N(CCOc2ccc([N+](=O)[O-])cc2)C1=O,.,0.6%,-5.3%,.,1.0%,.,-11.8%,.
COc1ccc(/C=C/C(=O)N(C)C2CCCCC2)cc1Br,.,-2.1%,27.7%,?,2.9%,.,-16.1%,?
C=CCNC(=O)C12CCC(C)(C(=O)[C@H]1Br)C2(C)C (stereo not given in full),.,0.2%,-7.1%,0.7%,4.6%,.,3.0%,-6.7%[46.1 µM]
CCN(CC)C(=O)c1ccccc1NC(=O)c1cccc(S(=O)(=O)N(CC)CC)c1,-2.7%,-6.1%,-8.6%,-7.1%,-5.5%,5.7%,-0.8%,11.6%
COC(=O)C1=C(C)NC(=O)/C1=C\c1cc(C)n(-c2cc(C)cc(C)c2)c1C,-2.1%,-17.3%,-18.8%,?,16.4%,1.2%,10µM*,?
Cc1cccnc1NC(=O)CN1C(=O)c2ccccc2S1(=O)=O,.,8.3%,19.0%,22.4%,.,.,-5.5%,-3.8%[46.1 µM]
C=CCn1c(O)c(/C=C2/C=c3ccccc3=N2)c(=O)[nH]c1=S,.,1.0%,-29.8%,?,-1.3%,.,11.4%,?
COC(=O)CCCCCn1c(-c2ccccc2)cn2c3c(=O)n(C)c(=O)n(C)c3nc12,3.2%,.,-2.3%,?,.,-2.6%,.,6.3%[46.1 µM]

# Bioassay records as filed in PubChem.
